Screening results (PubChem)
GALR2 agonist: GALR2 receptor agonists, primary screen, cell-based. activation, %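 (tested at 5 µM)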. hit rate 0.48% among 140,000. GALR2-expressing cells, agonist activation read-out. AID 803, 2007;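 active means above mean plus 3 SD of all compounds, about 5% in these data, not always enough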;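 further: 0% = vehicle buffer wells and 100% = reference agonist at full effect; tested in CHO reporter cells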
Target sequence (O43603 whole entry, looked up): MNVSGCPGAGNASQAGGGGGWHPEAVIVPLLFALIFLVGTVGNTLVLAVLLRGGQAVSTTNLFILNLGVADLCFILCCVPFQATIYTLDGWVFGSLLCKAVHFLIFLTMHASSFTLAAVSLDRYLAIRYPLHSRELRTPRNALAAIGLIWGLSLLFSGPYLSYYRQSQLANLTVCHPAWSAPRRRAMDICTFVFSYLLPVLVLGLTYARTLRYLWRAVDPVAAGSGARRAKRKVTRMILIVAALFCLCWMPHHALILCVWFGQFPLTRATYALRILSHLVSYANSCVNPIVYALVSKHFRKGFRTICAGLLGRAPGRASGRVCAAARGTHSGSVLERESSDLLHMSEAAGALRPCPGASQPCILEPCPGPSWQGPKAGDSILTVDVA
PKD1 kinase inh: inhibitors of human PKD1 kinase, biochemical, fluorescence polarization. Serine/threonine-protein kinase D1 (Homo sapiens), Q15139. PKD1 kinase fluorescence polarization assay. inhibition, %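 (about 10 µM by stock and volumes)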. hit rate 0.056% among 200,000. AID 797, 2007;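 active means inhibition of 50% or more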;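 further: controls were vehicle for no effect and a reference inhibitor for full effect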
HSV augment: enhancers of HSV replication in host cells, fold increase, host cell viability; HSV replication augmentation in cells; maximum fold increase; hit rate 0.005% among 220,000; AID 1956, 2009;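 active means peak rise of 1.5-fold or more in the series; tested in PC3 cells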;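 further: first round at 10 µM; read as green reporter fluorescence; hits show the peak of a series up to 25 µM; 1 = signal of infected wells without compound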
INS promoter inh: inhibitors of insulin promoter-driven GFP, primary screen, imaging, TRM-6 cells (human fetal islet line), eGFP reporter, cell count | inhibition, % at 2 µM | hit rate 0.9% among 130,000 | reporter expression induced with tamoxifen;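 active means inhibition above the mean plus 3 SD, with well images judged a real hit on visual review, cut at about 60% in these data, passing the limit was not always enough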
RGS16-Gao HTS: modulators of RGS16 binding to Galphao, primary screen, biochemical, human proteins, multiplexed bead flow cytometry | binding response (% of control), % at 10 µM | hit rate 0.38% among 220,000 | bead-based flow cytometry RGS16-Galphao binding, fluorescence; actives lie on both sides | AID 1441, 2008;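 active means below 25% or above 175%, edge rows of some plates excepted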;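 further: Galphao activated by GDP with aluminum fluoride before binding; 100% = wells without compound and 0% = beads without RGS; some results beyond the cut were filed as inactive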
Target sequence (O15492 whole entry, looked up): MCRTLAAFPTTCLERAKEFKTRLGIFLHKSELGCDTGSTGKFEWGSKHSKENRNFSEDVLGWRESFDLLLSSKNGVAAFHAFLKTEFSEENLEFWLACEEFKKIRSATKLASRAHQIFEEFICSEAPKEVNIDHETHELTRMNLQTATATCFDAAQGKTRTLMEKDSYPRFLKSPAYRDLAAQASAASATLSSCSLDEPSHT
Target sequence (P09471 whole entry, looked up): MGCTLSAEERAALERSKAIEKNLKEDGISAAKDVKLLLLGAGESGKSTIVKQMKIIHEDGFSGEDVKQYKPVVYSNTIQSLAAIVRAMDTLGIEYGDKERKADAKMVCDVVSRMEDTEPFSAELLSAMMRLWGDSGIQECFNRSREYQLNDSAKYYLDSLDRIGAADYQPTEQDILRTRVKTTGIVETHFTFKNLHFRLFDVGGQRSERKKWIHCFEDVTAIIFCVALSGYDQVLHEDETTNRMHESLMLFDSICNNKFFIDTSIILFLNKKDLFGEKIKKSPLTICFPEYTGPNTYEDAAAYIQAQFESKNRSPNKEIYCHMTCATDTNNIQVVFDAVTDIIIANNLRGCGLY
INS promoter inh cell count: also measured in INS promoter inh; calls as there; normalized cell count, %; measured here: cell count, toxicity; reference of the scale not given here;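 cells exposed to compound for 48 h; stained nuclei by imaging scaled within each plate; lower means fewer cells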
HSV augment primary fold: recorded beside HSV augment, whose call it bears; fold increase; compound at 10 µM; measured here: primary screen fold increase 10 uM; tested in PC3 cells;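 GFP signal in the first replicate; 1 = infected wells without compound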
Active calls of the source: *; i = inactive; . = no result given. This is a random part of the collection; about 1.3% have a hit in one of these screens.

SMILES | GALR2 agonist | PKD1 kinase inh | HSV augment | HSV augment primary fold | INS promoter inh | INS promoter inh cell count | RGS16-Gao HTS
CSc1ccc(S(=O)(=O)NCCOc2ccccc2C)cc1 | -1.7 | -0.3 | i | 1.05 | 42.9 | 88.9 | 133.1
CC(=O)OC1OCCOC1NC(=S)NCc1ccco1 (configuration not stated) | . | -6.0 | i | 1.08 | . | . | 96.2
CCOC(=O)N1CCN(C(=O)C(=O)NNC(=O)COc2ccc(Cl)c(C)c2)CC1 | -0.9 | -7.5 | i | 1.01 | 20.0 | 66.1 | 97.0
O=S(Cc1ccccc1)CC(O)(c1ccc(Cl)cc1)c1ccc(Cl)cc1 (configuration not stated) | -1.6 | -2.3 | i | 0.92 | . | . | 102.3
Cn1c(=O)c2c(nc(SCC(=O)OCc3ccccc3)n2C)n(C)c1=O | -2.5 | 4.7 | i | 0.91 | 9.7 | 121.9 | 103.5
CC(C)NS(=O)(=O)c1cc(C(=O)O)ccc1Cl | -1.0 | -13.6 | i | 1.06 | -21.4 | 118.8 | 107.3
CC(=O)c1sc(NC(=O)CCCOc2ccccc2C)nc1C | . | -7.0 | i | 1.02 | . | . | 109.2
COc1cc2c(cc1NC(=O)CN1CCN(S(=O)(=O)c3ccc(F)cc3)CC1)oc1ccccc12 | -1.1 | -3.7 | i | 0.88 | -12.5 | 98.4 | 107.7
CCn1ccnc1C(O)c1ccccc1OC (configuration not stated) | -1.0 | -7.3 | i | 0.84 | 9.5 | 108.7 | 96.5
COC(=O)CSc1nc(-c2ccc(C)cc2)c2c(c1C#N)CCCC2 | -0.4 | 4.0 | i | 1.01 | . | . | 96.3
CN(C)C(=S)Nc1ccc(S(=O)(=O)N2CCCCC2)cc1 | . | . | i | 1.13 | . | . | 99.9
O=c1[nH]c(CN2CCN(c3ccccc3)CC2)nc2ccccc12 | -1.6 | 6.3 | i | 1 | 35.7 | 96.8 | 99.1
CCCC[C@@H]1CNC(=S)N1CC1CCCCC1 | . | . | i | 0.88 | . | . | 97.5
NS(=O)(=O)c1ccccc1 | . | . | i | 0.97 | . | . | 102.0
CSc1nc(C)c2cc(C)oc2n1 | -0.8 | -1.2 | i | 0.9 | 11.5 | 87.2 | 99.6
CCOC(=O)CC(NC(=O)c1cccs1)c1ccc(OCC)cc1 (configuration not stated) | -2.5 | 6.3 | i | 0.98 | 34.3 | 76.5 | 104.8
OCCC1CN(Cc2cccn2-c2cccnc2)CCN1C1CCCCC1 (configuration not stated) | . | -10.7 | i | 0.96 | . | . | 98.7
O=C(Cn1cnnn1)Nc1ccccc1Cc1ccccc1 | 1.0 | -2.1 | i | 0.83 | . | . | 100.8
CCCCCCCCCC(=O)N/N=C(\C)c1cccnc1 | -1.0 | -1.9 | i | 0.88 | 52.4 | 135.1 | 107.3
COc1cc(-c2cccs2)cc(=O)c2c(C)oc(C)c12 | -1.4 | -14.9 | i | 0.98 | -118.2 | 164.6 | 93.9
Cc1ccc(-c2nnc(Nc3ccc(C(=O)N(C)C)cc3)c3ccccc23)cc1S(=O)(=O)NCC1CCCO1 (configuration not stated) | -0.9 | 0.9 | i | 0.84 | . | . | 92.5
O=C(C1CC2C=CC1C2)N1CCN(c2ccccc2)CC1 (configuration not stated) | . | 6.2 | i | 0.83 | -42.9 | 79.7 | 103.7
CC(C)C(NC(=O)c1ccccc1)C(=O)NCC(c1ccccc1)N(C)C (configuration not stated) | . | 0.2 | i | 0.9 | -73.3 | 133.0 | 100.8
O=[N+]([O-])c1ccc(OCCN2CCNCC2)cc1 | . | 1.6 | i | 0.98 | . | . | 110.9
CCCCN(CCCNC(=O)C1CCN(S(=O)(=O)CC)CC1)c1ccccc1 | -0.3 | -2.0 | i | 0.94 | 12.0 | 183.8 | 78.9
CC1(C)CC(n2c(=S)[nH]c3ccccc3c2=O)CCO1 (configuration not stated) | -1.2 | -10.1 | . | . | . | . | 101.9
O=C(O)CSc1nnc(SCc2cccc3ccccc23)s1 | -1.3 | 3.1 | i | 0.95 | 46.1 | 101.9 | 104.4
CCn1ccnc1CN(C)Cc1nc(CCC(C)C)no1 | . | -3.5 | i | 1 | . | . | 101.0
Cc1c(Cl)cccc1NC(=O)CCCN1C(=O)c2cccnc2C1=O | . | 3.6 | i | 0.93 | . | . | 95.5
N#C/C(=N\Nc1cccc(F)c1)C(=O)C1CC1 | . | . | i | 1.24 | . | . | 96.3

Molecules shown so far containing an aryl methoxy group (three):
SMILES | GALR2 agonist | PKD1 kinase inh | HSV augment | HSV augment primary fold | INS promoter inh | INS promoter inh cell count | RGS16-Gao HTS
COc1cc2c(cc1NC(=O)CN1CCN(S(=O)(=O)c3ccc(F)cc3)CC1)oc1ccccc12 | -1.1 | -3.7 | i | 0.88 | -12.5 | 98.4 | 107.7
CCn1ccnc1C(O)c1ccccc1OC (configuration not stated) | -1.0 | -7.3 | i | 0.84 | 9.5 | 108.7 | 96.5
COc1cc(-c2cccs2)cc(=O)c2c(C)oc(C)c12 | -1.4 | -14.9 | i | 0.98 | -118.2 | 164.6 | 93.9

Next section.
SMILES | GALR2 agonist | PKD1 kinase inh | HSV augment | HSV augment primary fold | INS promoter inh | INS promoter inh cell count | RGS16-Gao HTS
COC(=O)c1c(NC(=O)CN(c2ccccc2)S(C)(=O)=O)sc2c1CCCC2 | 0.6 | -0.7 | i | 0.81 | -41.9 | 98.2 | 104.7
O=S(=O)(NCCc1nnc2ccc(SCc3cccnc3)nn12)c1ccccc1 | . | 2.8 | i | 1 | . | . | 98.6
CCOc1ccccc1NC(=O)CCSc1nc2n[nH]c(C)c2c(=N)n1-c1ccccc1Cl | -1.2 | -2.8 | i | 0.75 | 25.8 | 89.5 | 104.0
Cc1ccc(NC(=O)Cn2nc(C)c([N+](=O)[O-])c2C)cc1C | . | -5.9 | i | 0.95 | . | . | 98.8
N/C(=C/C(=O)c1ccccc1O)C(F)(F)F | -0.9 | -0.4 | i | 1.25 | . | . | 99.8
COc1ccc(-c2ccoc2)cc1[C@H]1[C@H]2C=CC[C@@H](C)[C@@H]2C(=O)N1Cc1ccccc1 | . | . | i | 1.01 | . | . | 95.2
CCOc1nc(NC(=O)NC(=O)c2ccccc2)nc(-c2ccccc2)n1 | -0.3 | -3.0 | i | 0.98 | . | . | 101.5
CC(NC(=O)Cc1ccc(F)cc1)C(c1cccs1)N1CCN(C)CC1 (configuration not stated) | -0.7 | -4.0 | i | 1 | -356.2 | 63.8 | 104.0
Cc1cccc(N=C2NN=C(c3c(C)[nH]c4ccccc34)CS2)c1 | -2.0 | -1.6 | i | 0.69 | 0.0 | 168.9 | 108.7
CC(=NCc1ccco1)c1c(C)[nH]n(-c2nc3ccccc3s2)c1=O | -1.3 | -5.4 | i | 0.87 | 5.6 | 121.5 | 101.6
Cc1ccc(SCC(=O)Nc2ccc(N3CCN(C)CC3)c(F)c2)c(C)c1 | . | 12.3 | i | 0.71 | . | . | 104.9
COc1cc(C2C(C#N)=C(N)OC3=C2C(=O)CC(C)(C)C3)cc([N+](=O)[O-])c1O (configuration not stated) | . | . | i | 1.01 | . | . | 89.3
C/C(=N/OCC(=O)Nc1ccccc1)c1cccs1 | -1.5 | -5.7 | i | 0.83 | 25.0 | 86.5 | 85.3
CCCCC1=CC2=CC(=O)C(C)(OC(=O)CC)C(=O)C2=CN1CCCOC(C)C (configuration not stated) | . | . | i | 0.91 | . | . | 95.3
CCc1cccc(NC(=O)COc2ccccc2)c1 | -0.7 | -4.8 | i | 1 | . | . | 110.0
Cc1ccccc1C(=O)NC1CCN(CC(=O)Nc2ccc3c(c2)OCCO3)CC1 | . | -3.2 | i | 1.03 | . | . | 100.1
COc1cccc(C(=O)CSc2nnnn2C2CCCCC2)c1 | -1.1 | -7.2 | i | 1.06 | 12.7 | 177.9 | 103.4
c1sc2[n+](c1C13CC4CC(CC(C4)C1)C3)CCS2 | -1.0 | 3.7 | i | 0.97 | -76.9 | 78.5 | 84.3
CCOC(=O)C1=C(C)NC(SCC(=O)OC)=C(C#N)C1c1ccc(C(=O)OC)cc1 (configuration not stated) | -1.2 | -1.2 | i | 1.24 | . | . | 87.9
CCOC(=O)/C(C#N)=c1/s/c(=C2\C=Cc3ccccc3N2CC)c(=O)n1CC | -0.9 | -2.3 | . | . | 9.7 | 142.5 | 103.2
Cc1ccc(NC(=O)CN(C)S(=O)(=O)c2cccs2)cc1F | -2.1 | -3.9 | i | 0.74 | 73.7* | 64.6* | 28.0
O=C(NCCc1ccccn1)/C(=C/c1ccco1)NC(=O)c1ccccc1 | . | -2.0 | i | 0.98 | -9.5 | 115.6 | 107.2
Cc1ccc(S(=O)(=O)N(C)C)cc1NC(=O)CN1CCN(Cc2ccccc2)CC1 | . | -9.4 | i | 0.94 | . | . | 99.0
CCCOc1ccccc1C(=O)N(Cc1ccco1)C1CCS(=O)(=O)C1 (configuration not stated) | -1.1 | -2.8 | i | 1.04 | -100.0 | 131.6 | 89.1
O=C(Nc1ccccc1)N1CCCN(Cc2c(F)cccc2Cl)CC1 | . | . | i | 0.99 | . | . | 100.5
Cc1ccc(-n2nnnc2SC(C)C(N)=O)c(C)c1 (configuration not stated) | -1.6 | -10.9 | i | 0.98 | . | . | 100.8
CC(C)Cn1c(SCC(=O)N2CCc3ccccc3C2)nc2cc(Cl)ccc2c1=O | -2.6 | -3.7 | i | 0.56 | -6.9 | 110.6 | 106.1
Cc1ccc(SC[C@H](c2ccccc2)N2CCN(CCc3ccccc3)CCC2=O)cc1 | . | . | i | 0.79 | . | . | 105.4
CN1CCC(=C(c2ccc(Cl)cc2)c2ccccn2)CC1 | . | . | i | 1.02 | . | . | 108.0
Cn1c2ccccc2c(=O)c2c(=O)n(-c3ccccc3)c(C3CCCCC3)nc21 | 1.0 | -6.6 | i | 0.98 | -4.0 | 43.7 | 104.9
COc1cc2cc(C(c3nnnn3C(C)(C)C)N3CCC(C)CC3)c(=O)[nH]c2cc1OC (configuration not stated) | 0.4 | -7.5 | i | 1.03 | -7.1 | 80.9 | 186.8
C/C(=N\NC(=O)c1ccccc1)c1cccc(Br)c1 | . | -0.1 | i | 0.85 | . | . | 101.0
O=C(Nc1cc(C(F)(F)F)ccc1N1CCOCC1)c1ccco1 | -0.7 | -13.1 | . | . | 25.0 | 112.8 | 100.9
Nc1c(C(=O)NCC2CCCO2)sc2nc3c(c(-c4ccco4)c12)CC/C3=C\c1ccco1 (configuration not stated) | 0.5 | -3.2 | i | 1.19 | -130.3 | 64.8 | 88.7
Nc1nc(N)c2sc3nc4c(cc3c2n1)CCC4 | 1.1 | -0.9 | i | 0.85 | 46.7 | 72.1 | 91.2
COc1cc(C2=NOC(C(=O)Nc3ccc(C(C)=O)cc3)C2)cc(OC)c1OC (configuration not stated) | -0.4 | -7.5 | i | 0.89 | . | . | 110.1
Fc1ccc(C(c2nnnn2C2CCCC2)N2CCc3ccccc32)cc1 (configuration not stated) | -2.0 | -1.0 | i | 0.96 | -63.3 | 101.0 | 103.7
COc1ccc(-n2c(Cn3nc(C(F)(F)F)cc3C)n[nH]c2=S)cc1 | -0.4 | 5.0 | i | 0.94 | -11.1 | 54.0 | 44.6
CC(C)=C1C2CCC1C1C(=O)N(c3nccs3)C(=O)C21 (configuration not stated) | -0.9 | -9.8 | i | 1.06 | 4.8 | 82.2 | 109.2
CC(C)OC(=O)CSc1nnc(-c2cnccn2)n1-c1ccccc1 | -1.0 | -10.4 | i | 1.01 | 1.4 | 66.1 | 101.7
CN(C)CCCOC(=O)Cc1ccc(Cl)cc1 | -1.5 | -2.3 | i | 1.03 | -15.6 | 88.5 | 66.2
O=C(Nc1ccc(Cl)cc1)Nc1ccc(Oc2cccnc2)nc1 | . | . | i | 0.93 | . | . | 98.7
O=C(Nc1cccc(C(=O)O)c1)/C(=C\c1ccc2c(c1)OCO2)NC(=O)c1ccco1 | . | 5.0 | i | 0.98 | -28.6 | 112.8 | 108.0
C=CCn1c(SCC(=O)c2ccc(OC)cc2)nnc1-c1ccc2c(c1)OCO2 | -1.9 | -3.2 | i | 0.88 | -14.3 | 92.4 | 104.5
N=c1n(Cc2ccccc2)c2ccccc2n1Cc1ccccc1 | -0.4 | 3.5 | i | 0.81 | -100.0 | 58.1 | 103.1
CCn1c(SCC(=O)OC)nc2sc3c(c2c1=O)CC(C)(C)OC3 | . | . | i | 0.81 | . | . | 99.7
CCn1cc([N+](=O)[O-])c(C(=O)Nc2nc(-c3ccc(C)c(C)c3)c(C)s2)n1 | 0.6 | -1.5 | . | . | -28.9 | 73.7 | 94.9
Cc1ccc2oc(=O)c3cnn(CC(=O)Nc4ccccc4N4CCN(C)CC4)c3c2c1 | 0.2 | -8.6 | i | 0.74 | 14.3 | 83.6 | 103.0
